PK Bst = modulators of Bacillus stearothermophilus pyruvate kinase. Potency, µM. 51,000 tested, 1.2% active. partly purified Bacillus stearothermophilus pyruvate kinase, luminescence ATP production; ribose 5-phosphate activator present at AC10; in the data active means potency below about 11 µM; inconclusive means mostly about 12 µM to 25 µM; inactive means weaker than that;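 the screen sought inhibitors and activators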;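 also: potency is read from the fitted curve at half-maximal effect; scaled between full activation by ribose 5 phosphate and full inhibition by luteolin; about four in five hits inhibit and the cells do not say which; series up to 57 µM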
YjeE inh = inhibitors of E. coli YjeE (TsaE); Potency, µM; 71,000 tested, 0.05% active; purified YjeE, fluorescence polarisation of a bound ADP probe; P0AF67; active = well fitted falling curve; inconclusive = weaker or top-dose-only fall, or a rising curve; inactive = flat or poorly fitted curve;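 also: top concentration of the series not given in the record; excess ADP was the control for the full effect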
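Fluorescence polarization of a BODIPY Texas Red–ADP probe (2 uM) bound to purified YjeE (10 uM) was read after 15 min room-temperature incubation with compounds. Loss of polarization marks inhibitors; ADP serves as titrated control.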
The depositor's hits bear a star; i = inactive; ? = inconclusive; nt = not tested or not shown; & = joins results of further samples. Only part of the results is shown, so the mix of outcomes need not match the whole.

no. | molecule | YjeE inh | PK Bst
1 | CCn1c(C(=O)OC)cc2c1ccn2-c1ccc(F)cc1 | i | i
2 | Cc1cc2c(=O)n(CC(=O)NCC(=O)N3CCN(Cc4ccccc4)CC3)cnc2s1 | i | >57
3 | Cc1ccsc1C(=O)Nc1ccc(C(=O)O)cc1 | i | >57
4 | Cc1ccc(C(c2nnnn2C(C)(C)C)N2CCc3ccccc3C2)cc1 (centres undefined) | i | >57
5 | CCOC(=O)C1CCN(C(=O)Nc2ccc(OC)c(OC)c2)CC1 | i | >57
6 | CCc1cc2c(SCC(=O)c3cccs3)ncnc2s1 | i | >57
7 | CCOc1ccc(-n2nc(C(=O)N3CCOCC3)c3ccccc3c2=O)cc1 | i | >57
8 | CCOC(=O)C1=C(C)NC(=O)C1(NC(=O)c1cccnc1)C(F)(F)F (centres undefined) | i | >57
9 | COc1ccc(-c2cc(C(F)(F)F)nc(SCC(=O)N3CC(C)OC(C)C3)n2)cc1OC (centres undefined) | i | >57
10 | CCCN(Cc1ccccc1)S(=O)(=O)c1ccc(N2C(=O)CCC2=O)cc1 | i | >57
11 | Cn1c(N)c(C(=O)COC(=O)CCC(=O)c2cccs2)c(=O)n(C)c1=O | i | >57
12 | O=C(CN1CCC(c2nc3ccccc3[nH]2)CC1)NCc1ccc2c(c1)OCO2 | i | >57
13 | COc1ccc(CCN2C(=O)C(O)=C(C(=O)c3ccco3)C2c2cccs2)cc1OC (centres undefined) | i | >57
14 | COCCn1c(=O)c(-c2cccs2)nc2cnc(N(C)C)nc21 | i | nt
15 | CC(C)Cn1cc(C(=O)NCC2CCCO2)c2c3ccccc3n(C)c2c1=O (centres undefined) | i | nt
16 | CS(=O)(=O)N1CCC[C@@]2(CCN(C(c3ccccc3)c3ccccc3)C2)C1 | i | nt
17 | C=C(C)C1CC=C(C)C(OC(C)=O)C1 (centres undefined) | i | nt
18 | O=C(COC(=O)c1ccccc1Oc1ccccc1)NCc1ccco1 | i | >57
19 | COCc1nc2ccccc2n1Cc1ccccc1 | i | >57
20 | Clc1cccc(-c2nn3c(-c4cccc(Cl)c4)nnc3s2)c1 | nt | >25.6
21 | CCOc1ccccc1Oc1c(C)oc2c(CN3CCN(CCO)CC3)c(O)ccc2c1=O | i | >57
22 | O=C(NCc1ccccn1)c1ccc(/C=N/O)nc1 | i | >57
23 | CCn1c(Cn2nnc(-c3ccccc3)n2)nnc1SCC(=O)Nc1ccc(N(C)C)cc1 | i | >57
24 | Cn1c(=O)[nH]c(=O)c2c1nc(CN(Cc1ccccc1)Cc1ccccc1)n2CCN1CCOCC1 | i | >57
25 | Cc1cc2c3c(c1)C1(C(=O)N3C(C)(C)CC2C)C(C#N)=C(N)Oc2cc(O)ccc21 (centres undefined) | i | >57
26 | Cc1cccc(CS(=O)(=O)Cc2ccc(C(=O)NCCCN3CCOCC3)o2)c1 | i | >57
27 | CCOCc1cc(C)[nH]c(=O)c1C#N | i | >57
28 | O=C(CCn1c(=O)oc2ccccc21)N1CCN(C(c2ccccc2)c2ccccc2)CC1 | i | >57
29 | O=C(NC(Cc1ccccc1)C(=O)O)OCc1ccccc1 (centres undefined) | i | nt
30 | Cc1cc(C(=O)NCc2ccc3c(c2)OCO3)n(-c2ccccc2)n1 | i | nt
31 | Cc1oc(-c2ccccc2F)nc1CS(=O)(=O)CC(=O)NCc1ccco1 | i | nt
32 | CCN(CC)S(=O)(=O)c1ccc2oc(SCc3ccc(F)cc3)nc2c1 | i | >57
33 | COc1ccc(NC(=O)N2CCC3(CC2)CCN(C(=O)c2cc(C(F)(F)F)cc(C(F)(F)F)c2)CC3)cc1 | i | nt
34 | O=c1c(CN2CCN(Cc3ccccc3)CC2)coc2ccc(Cl)cc12 | i | nt
35 | CN1CCc2c(sc3c2C(=O)NC(c2ccco2)N3)C1 (centres undefined) | i | >11.4&>25.6
36 | O=C(O)c1cc(NCc2ccc3c(c2)OCO3)ccc1N1CCOCC1 | i | >57
37 | CC(=O)c1ccc(NC(=O)C2CC(c3ccc(F)cc3)=NO2)cc1 (centres undefined) | i | >57
38 | C/C(CC/C(C)=N/O)=N/O | i | nt
39 | COc1ccc(CCNC(=O)C2CCN(Cc3nc(-c4cccc(Cl)c4)oc3C)CC2)cc1OC | i | >57
40 | O=C(CC(=O)N1CCN(c2ccccn2)CC1)Nc1ccc2nc3n(c(=O)c2c1)CCCCC3 | i | nt
41 | COC(=O)CNC(=O)C1CCN(c2nc(C)cc(C)n2)CC1 | i | >57
42 | CCOc1ccc(C2CC(c3cccc(OC)c3)Nc3ncnn32)cc1 (centres undefined) | i | nt
43 | O=C(O)C1C2C=CC3(O2)C1C(=O)N1c2ccccc2C2OCCC2C13 (centres undefined) | i | >57
44 | CCOc1ccc(NC2=NCCC(=O)N2Cc2cccs2)cc1 | i | >57
45 | CCOc1ccc(Cc2nc(N)nc(N)n2)cc1 | nt | >25.6
46 | COc1ccc(Oc2cn[nH]c2-c2ccc(O)cc2O)cc1 | i | >57
47 | CC(C)NC(=O)N1CC2(CCN(C(=O)c3cccn3C)CC2)C1 | i | nt
48 | CN1CCN(C(=O)c2ccc3c(c2)N(Cc2ccc(Cl)cc2)C(=O)c2ccccc2S3=O)CC1 (centres undefined) | i | nt
49 | CCOc1ccccc1C1C(C#N)=C(N)Oc2n[nH]c(CC)c21 (centres undefined) | i | >57
50 | Cc1ccsc1C=Nc1ccc(O)cc1 | ? | nt
51 | COc1ccc(C(=O)N2CCC3(CCN(Cc4ccncc4)CC3)CC2)cc1 | i | nt
52 | OC(CN1CCN(c2ccccn2)CC1)Cn1c2ccccc2c2ccccc21 (centres undefined) | i | >57
53 | Cc1ccccc1-c1nc(CN2CCC(C(=O)NCCC3=CCCCC3)CC2)c(C)o1 | i | >57
54 | Cc1nc2sc(C(c3cccs3)N3CC(C)CC(C)C3)c(O)n2n1 (centres undefined) | i | nt
55 | CCCS(=O)(=O)N1CCN(C(=O)c2ccco2)CC1 | i | nt
56 | C/C=C/c1ccc(Oc2nnnn2-c2ccc(C(N)=O)cc2)c(OC)c1 | i | >57
57 | O=C(CSc1nc(-c2ccccc2)cs1)NC(=O)NCc1ccco1 | i | >57
58 | CN(C)c1ncc2nc(CCc3ccccc3)c(=O)n(-c3ccccc3)c2n1 | i | nt
59 | CCn1cc(C(=O)Nc2cccc(NC(C)=O)c2)c2cc(OC)c(OC)cc2c1=O | i | >57
60 | O=C(CCN1C(=O)c2ccncc2C1=O)NCc1ccc(Cl)cc1 | i | >57

(continued)
no. | molecule | YjeE inh | PK Bst
61 | CC1CCC(NC(=O)c2ccc(CS(=O)(=O)Cc3ccccc3F)o2)CC1 (centres undefined) | i | >57
62 | O=C(CCn1c(=S)[nH]c2cc3c(cc2c1=O)OCO3)N1CCN(C2CCCCC2)CC1 | i | >57
63 | COC(=O)c1[nH]c(C)c(/C(O)=C2\C(=O)C(=O)N(CCN(C)C)C2c2cccc(OC)c2OC)c1C (centres undefined) | i | >57
64 | CCOC(=O)C1C(=O)CC(C)(O)C(C(=O)OCC)C1c1ccco1 (centres undefined) | i | nt
65 | C(=N\c1nc2ccccc2[nH]1)/c1cccs1 | i | nt
66 | CCc1ccccc1N1C[C@@]23C=C[C@@H](O2)C(C(=O)OCC(C)C)[C@H]3C1=O (some centres undefined) | i | >57
67 | Cc1c(N=C/C=C/c2ccccc2)c(=O)n(-c2ccccc2)n1C | i | nt
68 | Cc1noc(C)c1S(=O)(=O)N(CC(=O)N1CCn2c1nc1ccccc12)c1ccc(C(C)C)cc1 | i | nt
69 | O=C(c1cnccn1)N1CCC2(CC1)CN(c1ccccn1)C2 | i | nt
70 | CCCc1cc(C(=O)Nc2sc3c(c2C(=O)OCC)CCCC3)no1 | i | nt
71 | CNC(=O)[C@@H]1O[C@@H](n2cnc3c(NCc4cccc(I)c4)ncnc32)[C@H](O)[C@@H]1O | i | nt
72 | Cc1nnc(NC2=NCCC2)s1 | i | >57
73 | O=c1oc2ccccc2c2nccnc12 | i | nt
74 | CCOc1ccccc1NC(=O)N1CCCC1C(=O)Nc1ccc(NC(C)=O)cc1 (centres undefined) | i | >57
75 | Cn1c(=O)c2[nH]c(SCCN3CCOCC3)nc2n(C)c1=S | i | nt
76 | O=C(O)CCCc1nc(-c2ccccc2)no1 | i | >57
77 | CC(C)(C)c1cnnn1-c1ccc(-c2csc(N)n2)cc1 | i | >57
78 | CC(C)C[C@@H](CC(=O)N[C@H](CC(=O)N[C@@H]1CCCC[C@H]1C(=O)N[C@H](CC(=O)N[C@@H](CCC(=O)O)CC(=O)O)Cc1c[nH]c2ccccc12)C(C)C)NC(=O)[C@@H]1CNCC[C@H]1N | i | nt
79 | Cn1c(=O)c2c(nc(NCCc3ccccc3)n2Cc2ccc(F)cc2)n(C)c1=O | i | nt
80 | CCn1c(SCC(=O)Nc2cccc(NC(=O)c3ccco3)c2)nnc1-c1cccs1 | i | >57
81 | CS(=O)(=O)N(CC(=O)NCc1ccncc1)Cc1ccc(Cl)cc1 | i | >57
82 | O=C(CN(c1ccc(F)cc1)S(=O)(=O)c1ccc2c(c1)OCCO2)Nc1ccc2c(c1)OCO2 | i | >57
83 | c1ccc(-c2nnn(C34CC5CC(CC(C5)C3)C4)n2)cc1 | i | nt
84 | COc1cc(NC(=O)Cc2cccs2)ccc1-n1cnnn1 | i | >57

Exported as labelled records: part of the list above.
(80) CCn1c(SCC(=O)Nc2cccc(NC(=O)c3ccco3)c2)nnc1-c1cccs1
- YjeE inh: i
- PK Bst: >57

(81) CS(=O)(=O)N(CC(=O)NCc1ccncc1)Cc1ccc(Cl)cc1
- YjeE inh: i
- PK Bst: >57

(82) O=C(CN(c1ccc(F)cc1)S(=O)(=O)c1ccc2c(c1)OCCO2)Nc1ccc2c(c1)OCO2
- YjeE inh: i
- PK Bst: >57

(83) c1ccc(-c2nnn(C34CC5CC(CC(C5)C3)C4)n2)cc1
- YjeE inh: i
- PK Bst: nt

New compounds follow.
no. | molecule | YjeE inh | PK Bst
85 | O=C1CCCN1CN(C(=O)c1ccccc1)c1ccc(F)cc1 | i | >57
86 | CN(C)C=Nc1nonc1N | i | >57
87 | CC(C)(C)C(=O)CN1C(=O)C2(OCCO2)c2ccccc21 | i | >57
88 | O=C(Cn1ncc2c1-c1ccccc1OC2)Nc1nc2ccccc2s1 | i | nt
89 | CCOc1cc(C2NC(=O)NC(O)(C(F)(F)F)C2C(=O)c2ccc(OC)cc2)ccc1O (centres undefined) | i | >57
90 | O=C(c1cc(C(F)(F)F)cc(C(F)(F)F)c1)N1CCC[C@@]2(CCN(Cc3nccs3)C2)C1 | i | nt
91 | COc1ccc(CCNS(=O)(=O)c2ccc3oc(C(=O)O)c(C)c3c2)cc1OC | i | >57
92 | Cc1ccc(NC(=O)c2noc3c2CCCCC3)cc1 | i | nt
93 | CCNc1ncc2nc(CCc3ccccc3)c(=O)n(Cc3cccc(OC)c3)c2n1 | i | nt
94 | C=C(CO)[C@H]1Cc2c(ccc3c(=O)c4c(oc23)COc2cc(OC)c(OC)cc2-4)O1 | i | nt
95 | OCC#CCSc1nnc(-c2ccncc2)o1 | i | >57
96 | CCCCCCSC1=C(C#N)C(c2ccc(O)cc2)CC(=O)N1 (centres undefined) | i | >11.4
97 | O=C(c1ccc(-n2cnnn2)cc1)N1CCOCC1 | nt | >25.6
98 | O=C(C1CCCN(S(=O)(=O)Cc2ccccc2)C1)N1CCc2ccccc21 (centres undefined) | i | >57
99 | O=C(/C=C\c1ccc(O)c(O)c1)O[C@@H]1C[C@](O)(C(=O)O)C[C@@H](O)[C@@H]1O | i | nt
100 | O=C(O)CNC(=O)[C@@H](CS)Cc1ccccc1 | i | nt
101 | CCN(CC(=O)Nc1cccc(C(C)=O)c1)S(=O)(=O)c1ccc(OC)cc1 | i | >57
102 | Cc1ccc(NC(=O)C2CCCN(c3ncccn3)C2)cc1F (centres undefined) | i | >57
103 | COc1ccc(OC(C)=O)c(C2c3cc(OC)c(OC)cc3CCN2C(C)=O)c1 (centres undefined) | i | nt
104 | CCOc1ccc2nc(SC(CC)C(=O)Nc3cc(C)on3)sc2c1 (centres undefined) | i | nt
105 | COc1ccc(CN(CC2CCCO2)S(=O)(=O)c2ccc(C(=O)O)cc2)cc1OC (centres undefined) | i | >57
106 | O=C(Nc1ccccc1C(=O)N1CCOCC1)c1ccco1 | i | nt
107 | NS(=O)(=O)c1ccc(N=Nc2ncccc2O)cc1 | i | nt
108 | Cn1c(=O)oc2cc(S(=O)(=O)N3CCC(C(=O)Nc4ccc(OC(F)(F)F)cc4)CC3)ccc21 | i | >57

Individual results from above:
Under PK Bst, no. 87 has >57
Under PK Bst, no. 41 has >57
Under PK Bst, no. 6 has >57
Under PK Bst, no. 37 has >57

Carrying on.
no. | molecule | YjeE inh | PK Bst
109 | Cn1c(Cc2cccs2)n[nH]c1=S | i | >57
110 | O=C(O)c1ccc2c3c1cccc3c(=O)n1c3ccccc3nc21 | i | nt
111 | Cn1c(=O)c2c(-c3ccccc3)n(Cc3cccnc3)cc2n(C)c1=O | i | >57
112 | Cc1cc(C)nc(SCCS(=O)Cc2ccc(Cl)cc2)n1 (centres undefined) | i | >57
113 | COC(C)=O | i | nt
114 | COc1cccc(-c2nccc(NCc3ccc(OC)cc3OC)n2)c1 | i | nt
115 | N#C/C(=C\c1ccc(O)c(O)c1)C(=O)NCCCCc1ccccc1 | i | nt
116 | CCCCn1nnnc1NCc1cc(OC)c(OC)cc1OC | i | >57
117 | COc1cccc(OCc2nc3ccccc3c(=O)n2N)c1 | i | >57
118 | CC(=O)Cc1nsc(NC(=O)c2c(-c3ccccc3Cl)noc2C)n1 | i | >57
119 | Cc1ccccc1C(=O)c1ccc2c(c1)n(C)c(=O)n2C | nt | >25.6
120 | Cc1ccnc(NC(=O)CN(C)S(=O)(=O)c2cccc3nsnc23)c1 | i | >57
121 | COc1cccc(C(c2nnnn2Cc2ccccc2)N2CCN(C(=O)c3ccco3)CC2)c1OC (centres undefined) | i | nt

Compound activity as filed in PubChem.
